AmpC nodet inh = inhibitors of E. coli AmpC beta-lactamase without detergent | P00811 | AmpC nitrocefin hydrolysis, absorbance 480 nm, no detergent; potencies from a single point are estimates | Potency, µM (series often up to 28.7 µM), for the others: top-dose activity change, negative = inhibition | 71,000 compounds, 1.8% hits; active = falling curve, for most hits resting on a single point; inconclusive = weak or doubtful change; inactive = flat or rising curve; note: % of control where 0% means no effect; about half of the hits show no inhibition at the top dose; a quarter of the inactives give rising signals
Target sequence (P00811 whole entry, looked up): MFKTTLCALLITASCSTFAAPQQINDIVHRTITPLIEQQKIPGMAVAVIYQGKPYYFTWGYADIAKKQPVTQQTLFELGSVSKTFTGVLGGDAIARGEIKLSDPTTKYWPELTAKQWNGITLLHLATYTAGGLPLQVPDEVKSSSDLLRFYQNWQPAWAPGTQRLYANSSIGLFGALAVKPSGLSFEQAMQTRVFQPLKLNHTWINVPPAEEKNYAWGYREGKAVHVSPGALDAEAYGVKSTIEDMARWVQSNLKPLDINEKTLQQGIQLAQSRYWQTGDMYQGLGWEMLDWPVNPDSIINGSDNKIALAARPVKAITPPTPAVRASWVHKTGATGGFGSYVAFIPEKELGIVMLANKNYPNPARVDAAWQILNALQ
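Enzyme, pH 7.0 phosphate. Compound titrations were pre-incubated with AmpC for 15 min at room temperature before nitrocefin (stock 800 uM) addition; product formation was recorded at 480 nm every 20 s for 4 min.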
* marks the source's active call; other numbers are inactive results; u = inconclusive; & = joins results of further samples; [ ] = another dose, or the depositor's remark. Potency is the fitted concentration of half-maximal effect.

structure	AmpC nodet inh
CCOC(=O)c1c(-n2cnnn2)sc(C)c1C	-0.5%
Cc1cccc(OCc2nnc(SCC(=O)Nc3ccc(C)c(C)c3)o2)c1	-7.2%
C=CCn1c(O)c(CN2CCOCC2)c(C)c(C#N)c1=O	-8.5%
COc1ccc(-c2noc(CCC(N)=O)n2)cc1OC	-3.2%
COc1ccccc1-c1cc(C(=O)Nc2ccc(F)cc2F)no1	u
CCCCN(Cc1ccccc1)c1ncnc2nc[nH]c12	7.8%
CC(C)c1nnc(NC(=O)c2cccc(-n3cnnn3)c2)s1	-2.4%
O=C(CN1CCCC1)NCC1(c2ccccc2)CCOCC1	5.0%
CC1=CC(C#N)(C#N)C(C#N)(C#N)C(c2ccccc2)N1 (stereo unspecified)	-12.2%
CC(=O)Nc1ccc(N=Cc2ccc[nH]2)cc1	-7.0%
O=C(O)CCCn1c(=O)[nH]c2ccccc2c1=O	-14.2%
COc1ccc(OC)c(C2=NOC(C(=O)N3CCC4(CC3)OCCO4)C2)c1 (stereo unspecified)	18.1%
CCN(CC)C(=O)CSc1nnc([C@H](CCSC)NC(=O)OC(C)(C)C)o1	21.0%
COC(=O)C1=C(C)NC(C)=C(C(=O)OC(C)C)C1c1cccc2nonc12 (stereo unspecified)	60.7%
O=C(Cn1ncn2c(cc3ccccc32)c1=O)NCCC1=CCCCC1	22.0%
CC1(C)C(=O)Nc2ccccc2N1C(=O)COc1ncnc2ccccc12	4.8%
O=S1(=O)CCN=C2SC3=C(CCCC3)N21	-5.9%
COC(=O)[C@@]1(Cc2ccc(F)cc2)[C@H]2c3cc(C(=O)N(C)C)n(Cc4ccc(Cl)c(C(F)(F)F)c4)c3C[C@H]2CN1C(=O)c1ccccc1	67.4%
O=c1c(-c2cc(F)cc(F)c2)nc2cnc(N3CCOCC3)nc2n1C[C@H]1CCCO1	-9.4%
COCc1nnc(NC(=O)c2ccc(NC(C)=O)cc2)s1	-12.5%
NO	0.6%
Cc1cc(NC(=O)CSc2nnc(Cc3cccn3C)n2CCc2ccccc2)no1	63.9%
CCc1[nH]nc2c1C(c1ccncc1)C(C#N)=C(N)O2 (stereo unspecified)	11.6%
COc1ccc(-n2c(=O)c(-c3ccc(Cl)cc3)nc3cnc(N(C)C)nc32)cc1	8.4%
Cn1c(SCC(=O)NCCc2ccccc2)nnc1-c1ccncc1	1.6%
OCC(O)CO	5.3%&-13.7%
COC(=O)Nc1nc2ccc(Sc3ccccc3)cc2[nH]1	-17.3%[12.8 µM]
C=CCn1c(SCC(N)=O)nnc1-c1ccccc1O	-0.8%
CC(C)(C)c1ccc(-c2conc2N)cc1	-13.6%
CCOC(=O)N1CCC(NC(=O)c2cccc3c2C(=O)N(c2ccc(OC)cc2)C3)CC1	91.6%

Reformatted with each value named: four of the compounds above.
> COCc1nnc(NC(=O)c2ccc(NC(C)=O)cc2)s1
  AmpC nodet inh = -12.5%
> NO
  AmpC nodet inh = 0.6%
> Cc1cc(NC(=O)CSc2nnc(Cc3cccn3C)n2CCc2ccccc2)no1
  AmpC nodet inh = 63.9%
> CCc1[nH]nc2c1C(c1ccncc1)C(C#N)=C(N)O2 (stereo unspecified)
  AmpC nodet inh = 11.6%

Continued:
structure	AmpC nodet inh
CC(=O)N1CN2CN(C(C)=O)CC(C(=O)c3ccc(Br)cc3)(C2)C1	-4.5%
CCOC(=O)CSc1nnc(-c2cccnc2)n1Cc1ccccc1	4.5%
COC(=O)Cn1c(=O)c2c(nc(Br)n2CC(=O)OC)n(C)c1=O	0.2%
Cc1ccc(Oc2ccc(N)cc2)cc1	-1.3%
COc1ccc(C(CNC(=O)C2CC(=O)N(Cc3ccc(C)cc3)C2)N(C)C)cc1 (stereo unspecified)	32.6%
COc1cc(-c2nc(-c3cccc(C)c3)no2)cc(OC)c1OC	68.2%
CCN(Cc1ccccc1)C(c1ccccn1)c1nnnn1C(C)(C)CC (stereo unspecified)	61.0%
CCC(=O)N1CCc2cc(S(=O)(=O)CCC(=O)Nc3cccc(F)c3)ccc21	-11.5%
CC12CC(c3ccccc3O1)N(C(=O)c1ccco1)C(=O)N2c1ccccc1 (stereo unspecified)	77.4%
c1ccn2cc(CSC3=NCCS3)nc2c1	-0.2%
CCOC(=O)c1cnn(-c2cc(C)c3ccccc3n2)c1N	-4.8%
CC(CCN(C)C)OC(=O)c1ccc(C(C)c2ccccc2)o1 (stereo unspecified)	19.8%
COc1ccc(CCNC(=O)c2[nH]c(C)c(C(C)=O)c2C)cc1OC	-16.1%
CCN(C(=O)Cc1cccs1)c1nnc(-c2cccnc2)s1	9.6%
NS(=O)(=O)c1cc(C(=O)O)c(Cl)c([N+](=O)[O-])c1Cl	-4.3%[5.75 µM]
O=C(NCCN1C(=O)CSC1=O)C1CC(=O)N(c2ccccc2)C1 (stereo unspecified)	-2.2%
O=C1c2oc3ccccc3c(=O)c2C(c2ccc(Br)cc2)N1c1ncccn1 (stereo unspecified)	13.3%
CCSCc1nnc(SCC(=O)c2ccc(OC)cc2)n1C	27.9%
N#Cc1nc(N2CCCCC2)nc(N2CCOCC2)n1	15.7%
CCC(C)NC(=O)CSC1=Nc2ccccc2C2=NC(CC(=O)NCc3ccc(F)cc3)C(=O)N12 (stereo unspecified)	38.2%
CCC(=O)Nc1cc2nn(-c3ccccc3)nc2cc1Cl	-7.6%
Cc1cc(C)n(Cc2ccc(F)cc2)c(=O)c1C#N	-3.4%
CCCCC(=O)Nc1ccc(NC(=O)C2CC2)nc1	-5.1%
Nc1nc(Cl)nc2c1ncn2[C@@H]1O[C@@H](COP(=O)(O)OP(=O)(O)OP(=O)(O)O)[C@@H](O)[C@H]1O	-7.3%
CCOC(=O)c1sc(NC(=O)CSc2nnc(-c3ccc(OC)cc3)n2CCOC)nc1C	104.5%
CC(C)C1(C)C(=O)N=C2c3ccccc3C(=O)N21 (stereo unspecified)	-9.2%
CCCCOCCCNS(=O)(=O)Cc1ccccc1	7.1%
COc1ccccc1OCc1nc(C#N)c(N2CC(C)CC(C)C2)o1 (stereo unspecified)	37.3%
O=C(NC12CC3CC(CC(C3)C1)C2)c1cnccn1	6.3%
C[C@@H](Cc1ccc2c(c1)OC(C(=O)O)(C(=O)O)O2)NC[C@H](O)c1cccc(Cl)c1	-3.6%
O=C(Nc1c2c(nn1-c1ccc(F)cc1)CSC2)c1ccc(S(=O)(=O)N2CCOCC2)cc1	24.0%
O=CN1CCN(C(=O)c2ccccc2F)CC1	-1.8%
Cc1nn(C)c(C)c1S(=O)(=O)N(CC(=O)Nc1ccccn1)c1ccc(C(C)C)cc1	124.5%
CCC(=O)c1ccc(N2CCCCCC2)c(F)c1	4.0%
O=C(NCc1cccnc1)c1cnn2ccccc12	3.98µM*
Cc1noc(-c2ccccc2OC(=O)c2ccccc2)n1	5.3%
O=C(CN1CCN(c2ccccn2)CC1)N(c1ccccc1)c1ccc2ccccc2c1	101.3%
CN1CCN(c2ncc3nc(-c4cccc(C#N)c4)c(=O)n(CCC#N)c3n2)CC1	60.0%
O=S(=O)(c1cccs1)N1CCN(Cc2ccccc2)CC1	-1.1%
COc1ccc(C2CC(c3ccc(Cl)cc3)Nc3nc(NC(=O)c4ccco4)nn32)cc1 (stereo unspecified)	78.9%
Cc1ccc(NC2=NC(c3ccco3)n3c(nc(C)cc3=O)N2)c(C)c1 (stereo unspecified)	0.6%
O=C(CSc1nc2sc3c(c2c(=O)n1-c1ccccc1)CCCC3)NCc1ccco1	7.1%
O=C(NCCO)c1ccc(Cl)c(Cl)c1	-1.2%
O=C(CCn1c(=O)oc2ccccc21)N1CCN(c2ccc(F)cc2)CC1	70.3%
CCOC(=O)c1ccc(Nc2ncnc3c2cnn3C)cc1	16.6%
COc1ccc(CCCc2nnc(SCC(=O)Nc3nc(C)cs3)n2C)cc1C	45.6%
CCCC(C(=O)OCCN(CC)CC)(c1ccccc1)c1ccccc1	61.8%[12.8 µM]
COc1ccc(-c2nc(-c3cccc(C)c3)no2)cc1OC	77.7%
c1ccc(-n2ncc3c(NCc4ccc5c(c4)OCO5)ncnc32)cc1	-1.7%
c1ccc(OCCSc2ncnc3nc[nH]c23)cc1	-9.2%
Cc1cc(C)nc(-n2nc(C)cc2NC(=O)CN2CCCC(C)C2)n1 (stereo unspecified)	61.8%
COc1cc(C(=O)O)cc(OC)c1OCc1cc(C(=O)O)oc1C	-8.4%
Cc1onc(-c2ccccc2Cl)c1C(=O)NCc1ccc(S(N)(=O)=O)cc1	-5.6%
CC1Oc2ccccc2N(Cc2cccnc2)C1=O (stereo unspecified)	-3.7%
O=C(COC(=O)c1ccccc1NC(=O)c1ccco1)Nc1ccc2c(c1)OCO2	-14.8%
Cc1nc(SCc2nc3ccccc3[nH]2)c2oc3ccccc3c2n1	80.2%
CCOC(=O)c1c(NC(=O)CC)sc(C(C)=O)c1C	30.9%
CCCN(CCC)C(=O)C1CCN(c2cc(C)nc3c(-c4ccc(OC)c(OC)c4)c(C)nn23)CC1	81.0%
Cc1cc(C(=O)N(C)Cc2ccc(Br)cc2)no1	13.0%
NC1(C(=O)O)CC1	7.8%

(continued)
structure	AmpC nodet inh
COCCCNc1oc(-c2ccccc2OC)nc1C#N	16.0%
O=C(COc1cccc(NC(=O)c2ccco2)c1)c1ccc(F)cc1	-10.5%
COc1ccc(Cl)c(Cn2c(NCc3ccccn3)nc3c2c(=O)n(C)c(=O)n3C)c1	69.2%
O=C(c1cccc(Cl)c1)N1CCN(c2ccccn2)CC1	3.8%
O=C(COC(=O)c1ccccc1Nc1ccccc1)NCc1ccco1	-16.4%
CCc1ccccc1NS(=O)(=O)c1ccc2[nH]cc(C(=O)NCc3ccco3)c(=O)c2c1	-21.1%
C=CCn1c(SCC(=O)NCCOC)nc2scc(-c3ccco3)c2c1=O	76.3%
CS(=O)(=O)Nc1cccc(-c2nc(NC3CC3)c3ccccc3n2)c1	-2.7%
Cc1ccc(-c2csc(/C(C#N)=C(\O)CN3CCN(C(=O)c4ccco4)CC3)n2)cc1	27.7%
O=C(C1Cc2ccccc2CN1S(=O)(=O)c1ccc(F)cc1)N1CCCCC1 (stereo unspecified)	38.0%
CCOC(=O)c1sc(C(=O)OCC)c(OCCO)c1OCCO	22.9%
CC(C)(C)SCCNC(=O)COc1ccc(Cl)cc1	37.4%
COc1ccc(-c2nnc3ccc(SCC(=O)N4CCCCC4)nn23)cc1OC	13.4%
CC(=O)c1ccc(C(=O)Nc2ccc(N3CCOCC3)cc2)cc1	1.5%
O=C1C2C3C=CC(C3=C3CCCCC3)C2C(=O)N1Cc1ccccc1 (stereo unspecified)	-5.2%
Cc1ccc(NC(=O)CS(=O)CC(=O)N(CC(=O)NC2CCCC2)c2cccc(C)c2C)cc1 (stereo unspecified)	104.3%
COC(=O)[C@@]1(Cc2ccc(F)cc2)[C@H]2c3cc(C(=O)N(C)C)n(CCc4ccc(O)c(O)c4)c3C[C@H]2CN1C(=O)c1ccccc1	162.0%
CCN(CCCl)Cc1ccccc1Br	-7.9%
CC12CN3CC(C)(CN(C1)C3c1cccs1)C2O (stereo unspecified)	-0.9%
CC1(C)N=C(N)N=C(N)N1c1cccc(OCc2cccc([N+](=O)[O-])c2)c1	1.9%[5.75 µM]
COc1ccc2[nH]c(=O)c(CN(C(=O)NC3CCCCC3)C3CCCCC3)cc2c1	45.1%
Cc1ccsc1C(=O)Nc1nnc(-c2ccco2)o1	-18.4%
CC(C)[C@H](N)c1nnc(SCc2ccc(Cl)cc2)o1	24.6%
Cc1cc(SCC(=O)N2CCC(c3noc4ccc(F)cc34)CC2)nc2ccccc12	3.1%
Cc1cccc(-c2nc(CN3CCCC(C(=O)NC4CCCCCC4)C3)c(C)o2)c1 (stereo unspecified)	138.5%
C[C@@H]([C@H](O)c1ccc(O)cc1)N1CCC(Cc2ccccc2)CC1	2.9%
COc1ccccc1NC(=O)N(C1CCCC1)C1CCN(C(C)=O)CC1	6.1%
CCOC(=O)c1ccc(NC(=O)CSc2nnnn2CCCO)cc1	7.8%
Cc1oc(-c2ccccc2F)nc1CN1CCC(C(=O)NC2CC2)CC1	0.5%
Cn1c(SCC(=O)c2ccccc2)nnc1-c1cnccn1	3.6%
Cc1cc(C)cc(N(CC(=O)NCC2CCCO2)S(=O)(=O)c2c(C)noc2C)c1 (stereo unspecified)	61.6%
CN(C(=O)COc1ccc(C(C)(C)C)cc1)C1CCS(=O)(=O)C1 (stereo unspecified)	32.7%
Cc1nnc2ccc(N3CCN(c4cccc(C(F)(F)F)c4)CC3)nn12	62.8%
CCCCC(=NCCO)C1=C(O)C(C(=O)OC)C(C)(C)CC1=O (stereo unspecified)	9.4%
Cc1ccc(CCN2CC(C(=O)NCCCN(C)Cc3ccccc3)CC2=O)cc1 (stereo unspecified)	30.4%
CC1(C)CC(=O)C2=C(C1)NC(=O)CC2c1ccccc1F (stereo unspecified)	-13.5%
Nc1nnnn1/N=C/c1ccccc1OCc1ccccc1	-4.9%
N#CCCN1CCN(C(=S)c2ccc(-c3ccc(Cl)cc3)o2)CC1	98.3%
CCN1C(=O)/C(=c2\o/c(=C3\C=Cc4ccccc4N3CC)c(=O)n2CC)SC1=S	8.5%
COc1ccccc1C(=O)Nc1ccc2c(c1)nc(CN1CCN(C(C)=O)CC1)n2C	-14.3%
CCn1nnnc1NCc1ccc(N2CCCC2)cc1	12.7%

Source: PubChem BioAssay (National Center for Advancing Translational Sciences (NCATS))

This is a subset. The share of hits here may be higher or lower than overall.
